High-throughput results as filed in PubChem.
Rango-impB inh: qHTS Assay for Inhibitors of Rango (Ran-regulated importin-beta cargo) - Importin beta complex formation; actives 0.031% (n = 340,000); Rango CFP/YFP FRET sensor + importin beta, 45 min; Importin subunit beta-1 (Homo sapiens), Q14974; AID 540263, 2011; Potency, µM (titrated, usually from 92.2 µM), without a hit: at the top dose inhibition of complex formation; active = rising FRET ratio curve, often small or poorly fitted; inconclusive = mostly compound fluorescence or quenching in the first reads; inactive = flat curves in all reads;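 also: potency is read from the fitted curve at half-maximal effect; 0% = DMSO wells and 100% = buffer wells lacking importin beta; nearly all actives have a fitted effect of over 15% in size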
Target sequence (Q14974 whole entry, looked up): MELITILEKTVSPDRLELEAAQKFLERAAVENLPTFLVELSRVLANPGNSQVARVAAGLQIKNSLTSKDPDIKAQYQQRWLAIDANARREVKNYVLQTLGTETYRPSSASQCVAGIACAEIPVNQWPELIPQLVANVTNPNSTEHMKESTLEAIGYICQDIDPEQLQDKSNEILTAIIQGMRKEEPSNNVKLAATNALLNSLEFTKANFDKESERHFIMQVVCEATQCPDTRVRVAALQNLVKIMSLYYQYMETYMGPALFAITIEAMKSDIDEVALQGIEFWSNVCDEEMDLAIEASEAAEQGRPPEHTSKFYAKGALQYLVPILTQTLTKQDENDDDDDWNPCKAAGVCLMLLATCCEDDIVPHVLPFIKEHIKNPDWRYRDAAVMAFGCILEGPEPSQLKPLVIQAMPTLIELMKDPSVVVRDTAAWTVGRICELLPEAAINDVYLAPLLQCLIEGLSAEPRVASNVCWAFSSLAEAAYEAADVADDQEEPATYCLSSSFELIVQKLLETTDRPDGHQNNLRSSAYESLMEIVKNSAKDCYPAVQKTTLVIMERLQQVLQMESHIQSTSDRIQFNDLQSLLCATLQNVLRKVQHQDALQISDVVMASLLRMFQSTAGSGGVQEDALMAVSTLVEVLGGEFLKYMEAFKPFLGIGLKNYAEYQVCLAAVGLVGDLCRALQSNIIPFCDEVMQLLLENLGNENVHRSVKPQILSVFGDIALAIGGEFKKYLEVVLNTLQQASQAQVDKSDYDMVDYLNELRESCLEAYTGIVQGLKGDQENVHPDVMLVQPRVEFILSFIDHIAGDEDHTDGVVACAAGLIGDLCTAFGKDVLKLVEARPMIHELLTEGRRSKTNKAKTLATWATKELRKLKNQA
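Inhibition scored from the CFP 486 nm/YFP 530 nm FRET ratio 45 min after adding 0.125 microM importin beta to 50 nM Rango biosensor preincubated 5 min with compound (room temperature, PBS with DTT, Tween-20, BSA). No-importin wells as positive control.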
miR-21 FLuc: qHTS Assay for Modulators of miRNAs and/orActivators of miR-21. HeLa miR-21 FLuc reporter, luciferase, 48 h. 340,000 tested, under 10 active. Potency, µM (highest dose often 38.3 µM), for the others: at the highest dose reporter change, positive = more light; active = well fitted rising curve with a large enough effect; inconclusive = small, poorly fitted or top-dose-only effect; inactive = no such curve, though single readings can be large or run the other way;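 also: % of control where 0% means no effect; miR-21 action dims this reporter so a rising signal means less miR-21 action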
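HeLa miR-21-FLuc reporter line, endogenous miR-21; 2000 cells/well in DMEM/10% FBS; compound titration up to ~40uM final, 48 h, 37 degree Celsius; luciferase detection reagent, 15 min lysis, CCD luminescence.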
Rango release inh: qHTS Assay for Inhibitors of RanGTP induced Rango (Ran-regulated importin-beta cargo) - Importin beta complex dissociation; Snurportin-1 (Homo sapiens) + GTP-binding nuclear protein Ran (Homo sapiens) + Importin …; Biochemical FRET Rango-importin beta, RanGTP-induced dissociation; Potency, µM (highest dose often 46.1 µM), without a hit: at the highest dose activity change, negative = inhibition; actives 0.071% (n = 340,000); AID 540253, 2011; active means falling FRET ratio curve, often poorly fitted, with flat reads before Ran was added; inconclusive means other falling curves, or compound fluorescence or quenching; inactive means flat or rising ratio curve;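 also: potency is read from the fitted curve at half-maximal effect; % of control where 0% means no effect; nearly all actives have a fitted effect of over 45% in size; -100% = wells without RanGTP and RCC1; the record marks most hits as doubtful in a second field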
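Quantitative HTS using a FRET biosensor: 0.1 uM Rango, 0.25 uM importin beta, 0.6 uM Ran, 2 mM GTP, 0.2 uM RCC1 final, PBS with DTT, Tween-20 and BSA. Post-read taken 45 min after Ran addition.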
GLA inh pH 4.5: qHTS Assay for Inhibitors of Human alpha-Galactosidase at pH 4.5 | activity change, negative = inhibition, % at 105 µM | Alpha-galactosidase A (Homo sapiens), P06280 | purified enzyme, 4-MU-alpha-Gal fluorescence, pH 4.5 | 230,000 tested, under 10 active | AID 1467, 2008; inconclusive = small, poorly fitted or top-dose-only inhibition, or a rising curve; inactive = flat fitted curve, though single readings scatter; no compound was filed as active;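 also: 0% = full activity with enzyme and -100% = basal without enzyme; dose as in the result columns while the protocol names 77 µM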
* hit, by the source's call; ? = inconclusive; . = not tested or not shown; & = joins results of further samples; [ ] = remark or other dose. The list is partial (hit frequency here may not be typical).

SMILES | Rango release inh | miR-21 FLuc | Rango-impB inh | GLA inh pH 4.5
COCc1cc(=O)[nH]c(-c2ccc(C(F)(F)F)cc2)n1 | -8.6% | 1.4% | -1.2% | -2.2
Fc1ccccc1Nc1nc(N2CCOCC2)nc(N2CCOCC2)n1 | 0.5% | -2.3% | -1.1% | .
CSc1nc2c(c(=O)[nH]1)C(c1ccccc1Cl)CC(=O)N2 (stereo not given) | -3.0% | 2.4% | -0.7% | -1.7
N#C/C(=C\c1cccs1)C(=O)Nc1nccs1 | -5.3% | -64.3% | -3.1% | 3.9
Cc1ccc(C(=O)Nc2ccc(F)c(S(=O)(=O)N3CCOCC3)c2)s1 | -7.2% | . | -0.1% | .
O=C1c2ccccc2C(Nc2ccc(Cl)cn2)N1c1cccnc1 (stereo not given) | 11.5% | -7.9% | ? | 0.6
O=C(O)CCC/C=C\C[C@@H]1[C@@H](/C=C/[C@@H](O)COc2cccc(Cl)c2)[C@H](O)C[C@@H]1O | 0.3% | -7.0% | ? | -1.9&-0.1&2.3
CCN1CCN(C(=O)c2ccccc2N(Cc2ccccc2)S(C)(=O)=O)CC1 | 0.2% | -0.4% | 0.7% | 0.1
CC(C)C(NC(=O)C1CCCCC1)C(=O)N1CCN(c2ccc(F)cc2)CC1 (stereo not given) | -5.2% | -1.1% | 1.8% | -24.7
COc1ccccc1NC(=O)c1ccccc1NS(C)(=O)=O | -8.7% | -5.0% | -1.4% | -3.5
COc1cc(NC(=S)NC(=O)C(C)C)ccc1NC(=O)c1cc2ccccc2o1 | 0.2% | -3.7% | 2.6% | 2.7
Cc1ccc(S(=O)(=O)Nc2cnc3ccccc3c2)cc1 | -19.5% | -31.1% | -5.7% | -2.0
Nc1nonc1-n1nnc(C(=O)N/N=C/c2ccncc2)c1-c1cccs1 | -7.3% | 0.4% | ? | .
O=C(CCN1C(=O)c2ccccc2S1(=O)=O)Nc1ccc(F)cc1F | -3.9% | -5.7% | -1.3% | .
COc1ccc(-n2ccnc2SCC(=O)NCc2ccco2)c(OC)c1 | -10.2% | -3.5% | -4.2% | 1.6[21.1 µM]
Cc1ccc(SC2CC(=O)N(c3ccc4c(c3)OCCO4)C2=O)cc1 (stereo not given) | 3.1% | 10.0% | -1.7% | -9.1
COc1cccc(NC(=S)NC(=O)/C=C/c2ccc(F)cc2)c1 | -13.2% | -8.0% | -3.7% | .
O=C(O)c1ccccc1C(=O)N1CC=C(c2ccccc2)CC1 | -18.6% | -8.3% | -1.2% | 3.9
O=C(CCSc1ccc(Cl)cc1)NC1CCCCC1 | -12.5% | -13.6% | -1.6% | 0.0
COc1ccc2c(c1)C(=O)CCC2c1ccccc1 (stereo not given) | -2.1% | -6.8% | -0.8% | .

The closing 2 records of the part above lead into the next:
SMILES | Rango release inh | miR-21 FLuc | Rango-impB inh | GLA inh pH 4.5
O=C(CCSc1ccc(Cl)cc1)NC1CCCCC1 | -12.5% | -13.6% | -1.6% | 0.0
COc1ccc2c(c1)C(=O)CCC2c1ccccc1 (stereo not given) | -2.1% | -6.8% | -0.8% | .
COc1ccc(CN(CC(=O)NC2CCCCC2)C(=O)CCCC(=O)Nc2ccccn2)cc1 | -5.9% | -1.9% | 6.2% | 9.3
Cc1ccc(S(=O)(=O)CC(=O)N2CCN(c3ccc([N+](=O)[O-])cc3)CC2)cc1 | -0.7% | . | -0.6% | .
Cc1nc(-c2cccc(NS(C)(=O)=O)c2)cs1 | -0.2% | -9.2% | -3.2% | 8.4
Cc1ccc(NC(=O)CSc2nnc(CNC(=O)c3ccco3)n2C)cc1C | 2.9% | . | ? | .
C[C@H]1COC(=O)[C@@H](Cc2ccc(F)cc2)C/C=C\C[C@@H](CC(=O)NCCO)C(=O)N1 | -5.0% | . | 3.5% | .
CC(=O)N1CCN(c2ccc([N+](=O)[O-])c(-n3nc(C)cc3C)c2)CC1 | 17.3% | -0.1% | ? | -5.5
CC1(C)CC(=O)C2=C(C1)N(N1CCOCC1)C(N)=C(C#N)C2c1cccs1 (stereo not given) | -8.7% | -3.9% | 3.0% | -13.9
O=C(N=C1SC2CS(=O)(=O)CC2N1c1ccccc1)C1CCCCC1 (stereo not given) | 0.0% | -0.7% | 1.8% | .
Cc1ccc(C(CNS(=O)(=O)c2ccc(Br)cc2)N2CCN(C)CC2)cc1 (stereo not given) | 7.6% | . | 1.7% | .
N#Cc1ccc(NC(=O)CN2C(=O)NC(Cc3ccccc3)C2=O)cc1 (stereo not given) | 10.9% | 6.3% | 4.6% | 2.8
CCCn1c(SCC(=O)Nc2ccc(NC(C)=O)cc2)nc2c1c(=O)n(C)c(=O)n2C | -0.8% | -0.2% | 1.0% | .
Cc1oc2ccc(OCc3ccc(Br)cc3)cc2c1C(=O)O | 7.6% | -0.3% | -4.1% | .
CCN(CC)S(=O)(=O)c1cccc(C(=O)NC(C(=O)NCCc2ccccn2)C(C)C)c1 (stereo not given) | 3.8% | . | -0.7% | .
CON=C1CCN(c2ncc(C(F)(F)F)cc2Cl)CC1 | 0.5% | -2.2% | -0.6% | 1.1
Cn1c(N)c(C(=O)COC(=O)c2ccc3ccccc3c2)c(=O)n(C)c1=O | 4.5% | . | 0.0% | .
c1ccc2c(CN3CCOCC3)csc2c1 | -3.8% | -5.5% | 0.4% | 13.4
CSc1ccccc1NC(=O)COC(=O)c1cnc(C)cn1 | -1.9% | . | -3.5% | .
COC(=O)C/C=N/N=C1/NC(=O)/C(=C/C(=O)O)S1 | ? | -5.1% | ? | -1.8
O=C(Cn1cc(S(=O)(=O)Cc2ccccc2F)c2ccccc21)N1CCOCC1 | -4.9% | -7.4% | -2.6% | .
O=C(N/N=C/c1cc([N+](=O)[O-])ccc1Cl)c1ccc2nc[nH]c2c1 | 0.9% | 3.5% | ? | -4.8
CCOC(=O)c1sc(NC(=O)CSc2ncn(-c3ccccc3)n2)nc1C | 19.3% | -3.1% | -3.7% | -1.7
COc1cccc(CN(C)C(=O)c2cccc(S(=O)(=O)NCc3ccccc3)c2)c1OC | 3.8% | . | 1.0% | .
CC(C)CCN1C(Nc2ccccc2)=NC[C@@H]1C | 4.5% | 0.4% | 0.4% | .
CSc1ccccc1NC(=O)c1ccc([N+](=O)[O-])cc1 | -14.6% | -4.6% | -0.5% | 5.2
CCCNCc1cc(OC)c(OCC(=O)Nc2ccccc2)cc1Br | -7.7% | -9.6% | 2.6% | -8.8
COc1ccc(NC(=O)c2cn(-c3ccccc3)nc2-c2ccncc2)cc1 | 4.2% | 2.4% | -2.2% | -5.6
O=C(c1ccc(NS(=O)(=O)c2ccccc2)cc1)N1CCN(Cc2ccc3c(c2)OCO3)CC1 | 0.9% | 7.5% | -0.8% | 6.8
CC(=O)Nc1ccc(NC(=O)CSc2n[nH]c(-c3cccs3)n2)cc1 | -15.4% | . | 4.2% | .
CN1CCN(c2oc(-c3cccs3)nc2S(=O)(=O)c2ccccc2)CC1 | 5.8% | 2.3% | -0.4% | 0.9
Cc1nn(C)cc1S(=O)(=O)N1CCN(c2cccc(Cl)c2)CC1 | 0.1% | 0.1% | 2.7% | .
CC(=O)Nc1ccc(C2=NN(C)C(=NCc3ccccc3)SC2)cc1 | -9.7% | 8.6% | -2.9% | -13.2
O=C(CN1C(=O)S/C(=C/c2ccc(N3CCOCC3)cc2)C1=O)N1CCOCC1 | ? | -31.1% | ? | -8.2
COc1cccc(C(=O)N2CCN(C3CCC(c4ccccc4)CC3)CC2)c1 (stereo not given) | 6.6% | 8.3% | -3.1% | -6.1
C/C(=N\N=c1/sc2ccccc2n1C)c1ccccn1 | 16.8% | -79.5% | -0.4% | -11.9
CCOC(=O)C1CCN(CCC(=O)Nc2ccc(Br)cc2)CC1 | 1.2% | -0.3% | 0.5% | .
COc1ccc(C2/C=C\CN(Cc3ccncc3)CC(=O)N2Cc2ccc(F)cc2)cc1 (stereo not given) | ? | 5.6% | -1.0% | -12.8
COc1ccc(-c2cccc(NC(=O)c3cccs3)c2)nn1 | -14.9% | . | -0.6% | .
CC1=CCC2C(=O)N(c3nc(C)cc(C)n3)C(=O)C2C1 (stereo not given) | -2.3% | -5.0% | -1.2% | 5.7
Cc1nn(-c2ccc(F)cc2)c(C)c1CN1CCN(Cc2ccccc2)C(CCO)C1 (stereo not given) | 0.9% | -0.3% | -0.2% | 2.7
CCOc1ccc(N2C(=O)c3cccnc3C2=O)cc1 | 4.2% | -5.7% | -2.3% | -10.0
O=C(Nn1c(O)c(C=C2N=c3ccccc3=N2)sc1=S)c1ccccc1Cl | -11.1% | -14.6% | 3.2% | -14.8
O=C(NCc1cccc(C(F)(F)F)c1)c1cc(Cl)ccc1Cl | 0.6% | -8.0% | -0.2% | 5.4
COc1ccc(N/C=C/C(=C(C#N)C#N)N(C)C)cc1 | -2.5% | 1.3% | -0.2% | -2.4
Cc1ccc(N2CC(C(=O)N(C)CC(=O)Nc3ccc(Cl)c(C(F)(F)F)c3)CC2=O)cc1 (stereo not given) | -9.3% | . | -6.5% | .
COc1ccccc1OCCC(=O)OCC(=O)Nc1ccc(Br)cc1 | 1.5% | -5.6% | -5.0% | 2.2
O=C(NNC(=O)C1CC1)Nc1ccc(Cl)cc1 | 0.8% | -6.5% | 5.4% | .
Cc1cc(C(=O)COC(=O)c2cccnc2Cl)c(C)n1CC1CCCO1 (stereo not given) | -12.3% | -6.5% | 4.9% | 11.3
Cc1cccc[n+]1CC(=O)c1ccc([N+](=O)[O-])cc1 | 2.0% | . | -3.1% | .
Cc1nn(C(C)(C)C)c(OC(=O)c2ccc3c(c2)OCO3)c1Sc1ccccc1 | 23.6% | 10.7% | 1.6% | -3.1
CCCSc1nnc(CSc2nc3ccccc3s2)n1-c1ccccc1 | 3.4% | 15.2% | 6.0% | 7.1
Cc1cc(-c2nnc(CCC(=O)NCc3ccc(F)c(F)c3)o2)no1 | 0.0% | 1.9% | 2.6% | 1.3
Cc1ccc(-c2nn(C)c(=O)c3ccccc23)cc1CN1CCOCC1 | 6.7% | -10.8% | -2.5% | 1.7
Cc1ccc2nc(NC(=O)CCNS(=O)(=O)c3cccs3)sc2c1 | 12.9% | -3.9% | -0.1% | -0.6
CN(C)c1ccc(N2C(=NC(=O)C3CCCO3)SC3CS(=O)(=O)CC32)cc1 (stereo not given) | 7.0% | -19.1% | -0.7% | .
CCOC(=O)Cn1cc(C(=O)c2ccco2)c2ccccc21 | -7.0% | -5.4% | -2.6% | 3.0
O=C(Nc1nc2ccccc2[nH]1)c1ccc(OC(F)F)cc1 | -1.4% | 8.8% | -1.1% | .
CC(=O)c1cnc(-c2cccc(Cl)c2)s1 | -0.1% | -42.2% | -2.2% | 6.6
O=C(COc1ccc(S(=O)(=O)NC2CCCC2)cc1)N1CCCCCC1 | 0.2% | 0.5% | 0.2% | 0.3
O=C(NCc1ccccc1F)C1CCCN1C(=O)Nc1cccc(F)c1 (stereo not given) | 11.7% | 2.4% | 1.2% | .
O=S(=O)(NC(=S)NC1CCCCC1)c1ccccc1 | 21.0% | -1.4% | 0.2% | -1.2

Following part:
SMILES | Rango release inh | miR-21 FLuc | Rango-impB inh | GLA inh pH 4.5
O=C(c1ccccn1)c1conc1C(=O)c1ccc(Br)cc1 | 11.0% | -12.5% | 0.3% | -26.3
Cc1ccc(-c2noc(CN(C(=O)Cc3ccccc3)C(C)C)n2)cc1 | -0.2% | 0.7% | 3.4% | -5.0
CCC(=O)c1ccccc1OCCCCn1cncn1 | -11.3% | -0.8% | 0.4% | .
O=C(CSc1n[nH]c(=O)[nH]c1=O)Nc1ccc2c(c1)C(=O)c1ccccc1C2=O | -0.1% | -46.2% | ? | 1.4
